KCNQ2 block: KCNQ2 channel blockers in CHO-K1 cells – cell-based, FluxOR thallium flux, B-score, primary screen (AID 2156) | actives 1.1% (n = 310,000) | B-score at 10 µM | 20 min; hits give low values; only compounds with negative scores are shown here; some inactives read as strong as hits;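 active = fluorescence ratio B-score at most minus 3 library SDs, with starting brightness B-score within 2 library SDs, cut at about -5.5 in these data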
Target sequence (O88943 whole entry, looked up): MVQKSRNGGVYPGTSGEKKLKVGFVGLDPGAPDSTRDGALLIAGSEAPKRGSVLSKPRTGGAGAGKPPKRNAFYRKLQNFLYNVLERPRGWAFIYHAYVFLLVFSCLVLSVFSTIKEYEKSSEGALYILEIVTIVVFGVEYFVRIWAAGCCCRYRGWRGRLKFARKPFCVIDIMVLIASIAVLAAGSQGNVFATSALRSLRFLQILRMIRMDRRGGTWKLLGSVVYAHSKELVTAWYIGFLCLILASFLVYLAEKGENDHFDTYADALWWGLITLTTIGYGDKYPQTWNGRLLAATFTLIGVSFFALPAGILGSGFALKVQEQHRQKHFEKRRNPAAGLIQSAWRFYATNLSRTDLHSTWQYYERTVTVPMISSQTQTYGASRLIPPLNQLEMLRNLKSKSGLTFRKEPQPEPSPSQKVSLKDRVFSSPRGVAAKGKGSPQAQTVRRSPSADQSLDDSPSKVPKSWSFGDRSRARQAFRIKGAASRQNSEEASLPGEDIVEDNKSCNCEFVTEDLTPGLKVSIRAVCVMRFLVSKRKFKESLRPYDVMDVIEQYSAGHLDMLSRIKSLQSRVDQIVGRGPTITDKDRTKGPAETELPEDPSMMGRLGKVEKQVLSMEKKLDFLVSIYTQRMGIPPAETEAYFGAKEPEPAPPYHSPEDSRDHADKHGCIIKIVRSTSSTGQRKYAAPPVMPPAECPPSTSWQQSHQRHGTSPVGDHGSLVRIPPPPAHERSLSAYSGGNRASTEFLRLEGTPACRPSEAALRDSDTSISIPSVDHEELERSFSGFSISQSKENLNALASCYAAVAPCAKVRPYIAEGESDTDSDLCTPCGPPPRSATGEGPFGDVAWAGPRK
KCNQ2 block baseline: second read-out of KCNQ2 block, no call of its own (marks repeat the call); B-score; measured here: initial fluorescence intensity artifact check;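 brightness before thallium and not channel activity; 0 = typical well and far values either way flag optical interference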
Numbers without * were called inactive; i = inactive. Not all compounds are listed, so the mix of outcomes need not match the whole.

Structure	KCNQ2 block	KCNQ2 block baseline
CSc1ccccc1OCc1cc(C(=O)NCCC2=CCCCC2)no1	i	-0.23
O=C(CNCC1CCCO1)Nc1ccccc1N1CCCCCC1 (stereo not given)	i	0.03
Cc1ccc(-n2c(C)cc(C(=O)COC(=O)C3=NNC(=O)CC3)c2C)cc1	i	-0.46
O=C1NC2=C(C(=O)CCC2)C(c2ccccc2Cl)N1 (stereo not given)	i	0.79
CCc1nnc(N/N=C/c2c(C)[nH]c3ccccc23)n1N	i	1.4
COc1ccc(OC)c(N/C=C2/CCCCC2=O)c1	i	-0.71
Cc1ccc(C(=O)Nc2ccncc2)cc1[N+](=O)[O-]	i	0.45
Cc1nnc(SCCn2c(N(C)Cc3ccccc3)nc3c2c(=O)n(C)c(=O)n3C)s1	i	-1.1
CCOC(=O)c1cc(-c2ccc(OC(F)F)cc2)nc2c1c(=O)[nH]c(=O)n2C	i	0.03
Cc1ccc2c(COC(=O)c3ccccc3Cl)cc(=O)oc2c1	i	-1
COc1ccc(C(=O)C2CCCN(C(=O)c3cccc(Cl)c3F)C2)cc1OC (stereo not given)	i	0.48
COC(=O)Cn1c(=O)c(C(=O)CCl)c(N)n(Cc2ccccc2)c1=O	i	-0.95
COc1ccc(C2CC(O)(c3ccccc3)Oc3cc(OC)ccc32)cc1 (stereo not given)	i	-2
O=C(Nc1cccc(NC(=O)c2ccc(Cl)cc2)n1)c1ccc(Cl)cc1	i	-0.19
Cc1ccc(OCC(=O)Nc2cccc(S(=O)(=O)N3CCCCCC3)c2)cc1C	i	-0.68
CCOc1ccccc1NC(=O)CCN(c1ccc(C)cc1)S(=O)(=O)c1ccccc1	i	-0.64
Cc1cccc(C(=O)NC2CCN(CC(=O)Nc3ccccc3Cl)CC2)c1	i	1.6
O=C(COc1ccccc1Cl)N(Cc1ccco1)C1CCS(=O)(=O)C1 (stereo not given)	i	0.43
COc1nc(-c2cccc([N+](=O)[O-])c2)nc2ccccc12	i	-0.23
CSc1ncccc1C(=O)OCC(=O)NC(C)(C)C	i	-0.1

Structure	KCNQ2 block	KCNQ2 block baseline
O=C(Nc1ccccc1)C1=C(O)CC(c2ccco2)CC1=Nc1ccccc1 (stereo not given)	i	-0.06
COc1ccc(N2C(=O)CC(N3CCN(c4ccccc4OC)CC3)C2=O)cc1 (stereo not given)	i	1.4
O=C(NC1CC1)c1c[nH]c2ccc(S(=O)(=O)Nc3cccc(C(F)(F)F)c3)cc2c1=O	i	-0.05
O=C(NC(=O)c1c(F)cccc1F)Nc1ccccc1SC(F)F	i	-0.56
CC(C)Oc1ccc(C(=O)NC2CCN(Cc3ccccc3)CC2)cc1	i	0.49
N=c1c2c(-c3ccccc3)c(-c3ccccc3)n(Cc3ccco3)c2ncn1CCCN1CCOCC1	i	-0.43
CC(/C=N/NC(=O)c1cc(-c2ccccc2)nc2ccccc12)=C\c1ccco1	i	-1
CCn1c(Cc2ccccc2)nnc1SCC(=O)Nc1ccc(N)cc1	i	1.1
Cc1cc(C)c(C)c(OCC(=O)NCc2nc(-c3ccccc3)no2)c1	i	-1.9
CN(C(=O)COC(=O)Cc1c(Cl)cccc1Cl)c1c(N)n(Cc2ccccc2)c(=O)[nH]c1=O	i	2.3
CCC(OC(=O)c1cccs1)C(=O)NCc1ccc(C)cc1 (stereo not given)	i	-1.4
Cn1cnnc1SCC(=O)NC(=O)NC1CCCC1	i	3.5
Nc1nnc(SCc2cc3c(cc2Cl)OCO3)s1	i	0.2
Cc1c(NC(=O)Nc2cc(F)c(F)cc2Cl)c(=O)n(-c2ccccc2)n1C	i	0.61
CCOc1ccc(NC(=O)CSc2nnc(NC(=O)C3CC3)s2)cc1	i	2.1
COc1ccc(N(C(=O)/C=C/c2ccc(OC)c(OC)c2)C2=CC3CCC(C2)N3C)cc1 (stereo not given)	i	-1.4
CCN(CC)c1ccc(/C=N/OC(C)C(=O)Nc2ccc(C)cc2)cc1 (stereo not given)	i	2.8
Cc1cc(C(=O)CSc2nnnn2-c2ccccc2)c(C)n1-c1ccc2c(c1)OCO2	i	3.9
c1ccc(OCc2nc3c4c(ncn3n2)-c2ccccc2CC42CCCC2)cc1	i	-0.09
CON/C=C(\C=Nc1ccc(F)cc1)c1ncc(C(F)(F)F)cc1Cl	i	0.05

Structure	KCNQ2 block	KCNQ2 block baseline
Cc1ccc(-c2ccc(SCC(=O)NCC3CCCO3)nn2)cc1 (stereo not given)	i	5.4
O=C(CSc1nnc(NC(=O)C2CCC2)s1)Nc1ccc(N2CCOCC2)cc1	i	-0.04
Cc1oc(CC(C)C)cc1C(=O)NCCCC(=O)O	i	-0.51
COc1ccc(Nc2nc(N3CCN(S(C)(=O)=O)CC3)nc3ccccc23)c(OC)c1	i	0.96
Cc1ccc(N(CC(=O)NC2CCCCC2)C(=O)CCCC(=O)Nc2ccccn2)cc1	i	0.79
COc1ccc(CCCC(=O)N/N=C/c2cccc(OC)c2O)cc1C	i	-2.7
Cc1ccc(NC(=O)CCC(=O)N/N=C/c2ccc(O)cc2O)cc1	i	-0.59
COc1ccc2c(CC(=O)N3CCc4cc(OC)c(OC)cc4C3)coc2c1	i	1.3
COc1ccc(-c2nn(-c3ccccc3)cc2/C=C/C(=O)N2CCOCC2)cc1OC	i	-0.98
O=[N+]([O-])c1ccc(S(=O)(=O)c2ccccc2)nc1	-5.9*	-0.22*
O=C(O)c1cnc(-c2ccccc2)nc1Oc1ccc(Cl)cc1	-7.5*	-0.01*
COc1ccc2c(c1)NC1(O)c3ccccc3C(=O)C21O (stereo not given)	i	0.83
Cc1cccc(-c2nc3c(c(SCC(=O)N4CCOCC4)n2)CCCC3)c1	i	-0.85
O=C(CNCc1ccccc1)NC1C2CC3CC(C2)CC1C3 (stereo not given)	i	0.02
Cc1ccccc1N1C(=O)c2ccccc2C1O (stereo not given)	i	0.98
C=CCNC(=S)Nc1sc2c(c1C(=O)OCC)CCN(C(=O)OCC)C2	i	-0.04
CCOC(=O)[C@H]1[C@H]2COc3cc(OC)ccc3[C@@H]2N2C(=O)N(c3cccc(Cl)c3)C(=O)[C@@]12C	i	0.18
CCCC(C)C(=O)Nc1ccc(C(N)=O)cc1 (stereo not given)	i	-1.8
O=C(CN1CCCCC1)NNC(=O)c1ccc([N+](=O)[O-])cc1	i	-1.5
Cc1cccc(-n2c(C)cc(/C=N/O)c2C)c1	i	-0.66

Structure	KCNQ2 block	KCNQ2 block baseline
Cc1cccc(C)c1NC(=O)CSc1nc(N2CCOCC2)nc(N2CCOCC2)n1	i	0.1
[N-]=[N+]=NC1c2ccccc2C(=O)N1Cc1ccccc1 (stereo not given)	i	0.42
O=C(NCCCN1CCOCC1)c1ccc2c(c1)N(Cc1ccc(Cl)cc1)C(=O)c1ccccc1S2=O (stereo not given)	i	-1.5
COC(=O)c1cc(-c2c(C)nn(-c3ccccc3)c2C)n[nH]1	i	0.02
Cc1c(-c2ccc(F)cc2)nc(N)c(C#N)c1-c1cccs1	i	1.2
CCN(CC)C(=O)N1c2ccccc2C=Cc2ccccc21	i	0.24
O=C(Nc1cccc(S(=O)(=O)N2CCCCCC2)c1)c1cc(=O)c2ccccc2o1	i	-0.01
Cc1cccc(NC(c2ccc(O)cc2)c2ccc3ccc(C)nc3c2O)n1 (stereo not given)	i	0.31
Cc1nc(SCCc2ccccc2)[nH]c(=O)c1C	i	1.2
CCOc1cccc(-c2nn3c(-c4ccco4)nnc3s2)c1	i	-0.64
O=c1cc(N2CCCCC2)c(-c2ccccc2)nn1Cc1ccccc1	i	-0.83
COc1ccc(C(=O)Nc2ccccc2C(=O)Nc2ccncc2)cc1	i	0.99
COc1ccc(CCc2nc(-c3ccc(-n4cccc4)cc3)no2)cc1	i	-0.16
Cc1ccc(NNC(=O)c2snnc2C)cc1Cl	i	0.86
Cc1ccc(C(=O)CC2(O)C(=O)N(CN3CCOCC3)c3ccccc32)cc1 (stereo not given)	i	-1.1
CCCCS(=O)(=O)NC1=NCN(CCOC(=O)c2ccccc2)CN1	i	0.09
C=CCc1cccc2cc(C(=O)NC(C)(C)C)c(=O)oc12	i	1.1
Cc1ccc(S(=O)(=O)NCCC(c2ccc(F)cc2)c2ccco2)cc1 (stereo not given)	i	0.01
COCCN1C(=O)C(=O)/C(=C(/O)c2ccc(S(=O)(=O)N3CCCCC3)cc2)C1c1ccc(OC)cc1 (stereo not given)	i	1.5
CCCn1c(N2CCN(CC(=O)c3c[nH]c4ccccc34)CC2)nc2c1c(=O)[nH]c(=O)n2C	i	-0.67

5 successive records out of the list so far, quoted:
Structure	KCNQ2 block	KCNQ2 block baseline
CSc1ccccc1OCc1cc(C(=O)NCCC2=CCCCC2)no1	i	-0.23
O=C(CNCC1CCCO1)Nc1ccccc1N1CCCCCC1 (stereo not given)	i	0.03
Cc1ccc(-n2c(C)cc(C(=O)COC(=O)C3=NNC(=O)CC3)c2C)cc1	i	-0.46
O=C1NC2=C(C(=O)CCC2)C(c2ccccc2Cl)N1 (stereo not given)	i	0.79
CCc1nnc(N/N=C/c2c(C)[nH]c3ccccc23)n1N	i	1.4

Later entries
Structure	KCNQ2 block	KCNQ2 block baseline
CNc1nc2c(C)cccn2c(=O)c1C=Nc1ccc(OC)cc1	i	0.93
COc1ccc(CCNC(=O)CSc2nnc(CNC(=O)c3ccccc3F)o2)cc1OC	i	-0.1
CC(C)N(Cc1cc2ccccc2[nH]c1=O)C(=O)C(C)(C)C	i	0.65
O=C(O)CCC(=O)NNC(=O)CCC(=O)Nc1ccccc1	i	-0.02
O=C(CN1CCN(S(=O)(=O)c2ccc(Cl)cc2)CC1)NC1CC1	i	2.2
Cc1csc(NC(=O)[C@@H](NC(=O)c2ccccc2)C(C)C)n1	i	-0.52
CCOc1ccc2[nH]c(=O)c(CN(CC3COCCO3)C(=O)c3ccco3)cc2c1 (stereo not given)	i	-1.8
C/C(=C\C(=O)c1ccc(Br)cc1)N1CCCCC1	i	0.99
O=C(NNC(=O)c1cc(Cl)ccc1O)c1cccs1	i	-1.3
Cc1cccc(NC(=O)CN2CCC(C(=O)c3ccc4c(c3)OCCO4)CC2)c1	i	0.16
CCCCOc1cccc(-c2nnc(NC(=O)CSc3ccc(C)cc3)s2)c1	i	-1.6
CCc1cc(=O)oc2cc(C)cc(OCC(=O)NC(Cc3ccc(Cl)cc3)C(=O)O)c12 (stereo not given)	i	0.64
O=C1CC2(CCN(C(=O)c3ccc(F)c(F)c3)CC2)Oc2ccccc21	i	1.6
CCC(C)NC(=O)c1cn(CC)c2cc(N3CCN(C)CC3)c(F)cc2c1=O (stereo not given)	i	1.2
COc1ccc(N2CCN(C(=O)c3cc4c(=O)n(Cc5ccccc5)ccc4nc3C)CC2)cc1	i	2.9
CCOC(=O)c1oc2cc(C)cc(C)c2c1C	i	-0.84
COc1ccc(C(=O)NCCSCc2ccco2)cc1OC	i	-1.3
COCCNC(=O)c1c(N)n(CCC2=CCCCC2)c2nc3ccccc3nc12	i	-0.23
CC(=O)c1ccc(OCCCC(=O)N2CCN(S(=O)(=O)c3cccs3)CC2)cc1	i	0.21
O=C(N/N=C/c1ccc(OC(=O)c2cccc(F)c2)cc1)c1cccnc1	i	0.99

Structure	KCNQ2 block	KCNQ2 block baseline
O=C(NC(C(=O)c1ccccc1)n1c(=O)cc[nH]c1=S)c1ccccc1 (stereo not given)	i	-0.82
COc1ccc(S(=O)(=O)N/N=C\c2ccc(OC)c(COc3ccc(C)cc3[N+](=O)[O-])c2)cc1	i	-2.6
COc1cccc(-n2ccnc2SCC(=O)Nc2ccccc2)c1	i	-0.31
Oc1ccc(Cl)cc1CNc1nccs1	i	-0.27
COC(=O)c1ccc(NC(=O)c2ccc(NC(=O)c3ccco3)cc2)cc1	i	0.05
C/C(=C\C(=O)c1ccc(F)cc1)Nc1ccc(N2CCOCC2)cc1	i	-0.9
Brc1c(CSc2nnc(-c3ccco3)o2)nc2ccccn12	i	0.41
CCc1ccc(C2CC(c3cccc(Cl)c3)n3nc(N)nc3N2)cc1 (stereo not given)	i	1
c1ccc(-c2nc3ccccc3[nH]2)nc1	i	2
CCCNC(=O)c1cccc(S(=O)(=O)N2CC3(C)CC2CC(C)(C)C3)c1 (stereo not given)	i	10
CC(C)(C)N=Cc1c(O)ccc2oc3c(c12)CCCC3	i	9.3
CN(C)CCCn1c(N)c(C#N)c2nc(C#N)c(C#N)nc21	i	-0.05
COc1ccc(/C=C(/NC(=O)c2cccs2)C(=O)Nc2ccc(C)cc2)cc1OC	i	0.94
O=C(NC1CC1)C1=C[C@@H](C2CC2)C[C@@H](OCCCCO)O1	i	1.6
O=C(NCCN1CCN(C(=O)C(c2ccccc2)c2ccccc2)CC1)C(=O)Nc1ccccc1	i	-0.83
COc1ccccc1/C=C1\SC(=S)N(CC(=O)NC2CCS(=O)(=O)C2)C1=O (stereo not given)	i	2.1
O=C(NC(=O)c1cccc(F)c1)Nc1nc(-c2ccc(F)cc2)cc(C(F)(F)F)n1	i	-0.57
Cc1ccc(/C=N/NC(=O)c2c[nH]c3ccccc23)o1	i	2.6
Cc1cccc2cc(CN(Cc3cccs3)C3(c4nnnn4C4CCCC4)CCCC3)c(=O)[nH]c12	i	-0.14

One compound at a time, from the list above. Order of values: KCNQ2 block	KCNQ2 block baseline
Record of Oc1ccc(Cl)cc1CNc1nccs1 : i	-0.27
Record of N=c1c2c(-c3ccccc3)c(-c3ccccc3)n(Cc3ccco3)c2ncn1CCCN1CCOCC1 : i	-0.43
Record of CCn1c(Cc2ccccc2)nnc1SCC(=O)Nc1ccc(N)cc1 : i	1.1

Bioassay records as filed in PubChem BioAssay.
